Compound activity as filed in PubChem.
Ecoli growth = inhibitors of Escherichia coli growth. AID 1053175. hit rate 0.21% among 330,000. OD600, 23 h; hits give low values. OD600 absorbance (test concentration not listed);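 active = OD600 absorbance below the run mean of sample wells minus 3.6 SD, in any replicate, cut at about 0.56 in these data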;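 also: stock transfer was 300 nL into about 60 µL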
* = called active by the depositor; & = joins results of further samples. These rows are one share of the data; rates above refer to the full screens.

O=C(CC1CC=CCCC(Cc2ccc(F)cc2)C(=O)OCC(Cc2ccccc2)NC1=O)NC(CO)Cc1ccccc1 (configuration not stated)
  Ecoli growth: 0.67
CCOC1OC(C(=O)Nc2ccccc2)=CC(c2ccc(Br)cc2)C1CCCO (configuration not stated)
  Ecoli growth: 0.668&0.661
C=CC1c2c(F)cccc2N(S(=O)(=O)c2ccc(C)cc2)C(c2ccc(C(=O)OC)cc2)C1(C#N)C#N (configuration not stated)
  Ecoli growth: 0.733
CC1CN(C(C)CO)C(=O)c2cccc(NS(=O)(=O)c3cccs3)c2OC1CN(C)C(=O)NC1CCCCC1 (configuration not stated)
  Ecoli growth: 0.651
Cc1ccc(-c2nn(Cc3ccccc3)cc2C=CC(=O)O)cc1C
  Ecoli growth: 0.688
COc1ccc(-n2c(O)c(C=NNS(=O)(=O)c3ccc(C)c([N+](=O)[O-])c3)c3ccccc3c2=O)cc1OC
  Ecoli growth: 0.711
COc1ccc(C2CC(=O)C=C(c3cc(F)ccc3F)C2)cc1OC (configuration not stated)
  Ecoli growth: 0.695
CCCC1C[C@@]1(CCC)C(NP(=O)(c1ccccc1)c1ccccc1)c1ccc(C(=O)OC)cc1 (some centres not stated)
  Ecoli growth: 0.646
COCCN1C(=O)NC(c2ccco2)C(C(C)=O)=C1C (configuration not stated)
  Ecoli growth: 0.707
O=C1C2C(c3ccc(F)cc3)N3C(=O)N(c4cccc(F)c4)C(=O)[C@@]3(Cc3ccccc3)C2C(=O)N1C1CCCCC1 (some centres not stated)
  Ecoli growth: 0.721

Quoted from the listing:
O=C1C2C(c3ccc(F)cc3)N3C(=O)N(c4cccc(F)c4)C(=O)[C@@]3(Cc3ccccc3)C2C(=O)N1C1CCCCC1 (some centres not stated) in Ecoli growth is listed with 0.721
COc1ccc(C2CC(=O)C=C(c3cc(F)ccc3F)C2)cc1OC (configuration not stated) in Ecoli growth is listed with 0.695
CCOC1OC(C(=O)Nc2ccccc2)=CC(c2ccc(Br)cc2)C1CCCO (configuration not stated) in Ecoli growth is listed with 0.668&0.661
C=CC1c2c(F)cccc2N(S(=O)(=O)c2ccc(C)cc2)C(c2ccc(C(=O)OC)cc2)C1(C#N)C#N (configuration not stated) in Ecoli growth is listed with 0.733
Cc1ccc(-c2nn(Cc3ccccc3)cc2C=CC(=O)O)cc1C in Ecoli growth is listed with 0.688
CC1CN(C(C)CO)C(=O)c2cccc(NS(=O)(=O)c3cccs3)c2OC1CN(C)C(=O)NC1CCCCC1 (configuration not stated) in Ecoli growth is listed with 0.651

(listing goes on)
CC(C)CCN1C(Nc2ccccc2)=NCC1C (configuration not stated)
  Ecoli growth: 0.684
COc1ccc(SCC(Cc2ccccc2)N2CCC(C(C)(C)C)CCC2=O)cc1 (configuration not stated)
  Ecoli growth: 0.718
O=C1C=C(c2ccc(C(=O)O)cc2)CC(c2ccc(F)cc2)C1 (configuration not stated)
  Ecoli growth: 0.656
CC(O)C1CNCCN1CCc1cccc2ccccc12 (configuration not stated)
  Ecoli growth: 0.642
CC(NC(=O)c1[nH]cnc1C(=O)Nc1nccs1)c1ccccc1 (configuration not stated)
  Ecoli growth: 0.695&0.704
C#CCOCCOCCOCCNc1nc(N2CCN(C(=O)C(CCCCN)n3cc(CCCC)nn3)CC2)nc(N2CCN(C(=O)C(C(C)CC)n3cc(CCCCN)nn3)CC2)n1 (configuration not stated)
  Ecoli growth: 0.703
O=C1C2C(c3ccc(Cl)cc3)N3C(=O)N(c4cccc(F)c4)C(=O)[C@@]3(Cc3ccccc3)C2C(=O)N1C1CCCCC1 (some centres not stated)
  Ecoli growth: 0.714
COc1ccc2c(c1)OC(c1cccc(C(F)(F)F)c1)C(OC(=O)Nc1ccc(OC(F)F)cc1)C2=O (configuration not stated)
  Ecoli growth: 0.647
COCC=CC1=CC2=CC(=O)C(C)(OC(=O)c3cnc4ccccc4n3)C(=O)C2=CN1C(CO)CO (configuration not stated)
  Ecoli growth: 0.643
C#CCOCCOCCOCCNc1nc(N2CCN(C(=O)C(C(C)C)n3cc(CCO)nn3)CC2)nc(N2CCN(C(=O)C(C(C)CC)n3cc(CCCCN)nn3)CC2)n1 (configuration not stated)
  Ecoli growth: 0.681

CC(C)NC(=O)Nc1ccc2c(c1)C(=O)N(C(C)CO)CC(C)C(CN(C)C(=O)NC1CCCCC1)O2 (configuration not stated)
  Ecoli growth: 0.677
COC(=O)C1=C(C(=O)OC)C2N(Cc3ccccc3)c3ccccc3[C@@]23CC(C(=O)OC)N=C3N1 (some centres not stated)
  Ecoli growth: 0.68
C#CCCOC(=O)N1C2=NC(C(=O)OC)=C(C(=O)OC)C3Nc4ccccc4[C@]23CC1C(=O)OC (some centres not stated)
  Ecoli growth: 0.697
CC(=O)CC1c2ccccc2S(=O)(=O)N1c1ccccc1 (configuration not stated)
  Ecoli growth: 0.632
COC(=O)c1cccc(C23CC4(C2)C(CN(Cc2cccnc2)C4c2ccccc2)C3c2ccc(Cl)nc2)c1 (configuration not stated)
  Ecoli growth: 0.716
COc1ccc2c(c1)C1C(CO2)C(c2ccccc2)[C@]2(C)C(=O)Nc3ccc(Cl)cc3C(=O)N12 (some centres not stated)
  Ecoli growth: 0.723
CC(C)NC(=O)N(C)CC1Oc2c(NC(=O)C3CCCCC3)cccc2C(=O)N(C(C)CO)CC1C (configuration not stated)
  Ecoli growth: 0.662
CC(=O)NC(=Cc1ccc2c(c1)OCO2)C(=O)NCCCO
  Ecoli growth: 0.708
COc1ccc(C2C=CCN(C(=O)c3ccc(C)cc3)C(C)C(=O)N2Cc2ccc(F)cc2)cc1 (configuration not stated)
  Ecoli growth: 0.67
COC(CC(O)C(C)C(O)COCc1ccccc1)OC (configuration not stated)
  Ecoli growth: 0.675&0.657&0.65&0.702&0.695&0.69&0.705

CCC(C)Sc1ccc(C2C3C(=O)N(C)C(=O)C3[C@]3(C(=O)OC)CCCCN23)cc1 (some centres not stated)
  Ecoli growth: 0.71
COc1cc2c(c(O)c1OC)-c1c(cc(OC)c(OC)c1OC)CC(C)C(C)C2 (configuration not stated)
  Ecoli growth: 0.675
CN(C)C1=NCC(Cc2ccccc2)N1CCC1CCCC1 (configuration not stated)
  Ecoli growth: 0.643
COC(=O)[C@]1(CC(C)C)NC(c2ccc(SC3CCCCC3)c(OC)c2)C2C(=O)N(C)C(=O)C21 (some centres not stated)
  Ecoli growth: 0.669
CC(C)CC(CN1C(=O)C(=O)NCC1CC(C)C)NC(=O)Cc1ccccc1 (configuration not stated)
  Ecoli growth: 0.631
Cc1ccc(C(=O)NC(=Cc2cccs2)C(=O)NCCCn2ccnc2)cc1C
  Ecoli growth: 0.691
C=CCOc1c(Br)cc(C=C2NC(=S)N(C(C)=O)C2=O)cc1OC
  Ecoli growth: 0.754
COc1cc(C=CC(=O)OC2C(CO)OC(OCCc3ccc(O)c(OC)c3)C(O)C2OC2OC(C)C(O)C(O)C2O)ccc1O (configuration not stated)
  Ecoli growth: 0.695
C[C@@]12C(=O)N(c3ccccc3)C(=O)N1C1c3ccccc3OCC1C2c1ccccc1 (some centres not stated)
  Ecoli growth: 0.717
CCOC(=O)C1C2COc3ccc(OC)cc3C2N2C(=O)CN(CC3CCCO3)C(=O)[C@@]12C (some centres not stated)
  Ecoli growth: 0.698

Pulled by compound from the list above:
COC(=O)[C@]1(CC(C)C)NC(c2ccc(SC3CCCCC3)c(OC)c2)C2C(=O)N(C)C(=O)C21 (some centres not stated)
  Ecoli growth: 0.669
Cc1ccc(C(=O)NC(=Cc2cccs2)C(=O)NCCCn2ccnc2)cc1C
  Ecoli growth: 0.691

Following part
CCC(C)C1CN(C(C)CN2CCCC2CN2C(N)=NCC2Cc2ccccc2)C(=N)N1CCCC1CCCC1 (configuration not stated)
  Ecoli growth: 0.624
COc1ccc(C2C=CCN(S(=O)(=O)c3ccc(C)cc3)C(C)C(=O)N2Cc2ccc(F)cc2)cc1 (configuration not stated)
  Ecoli growth: 0.727
COC(=O)[C@@]12CCCN1C(c1ccc(-c3ccccc3)c(OC)c1)C1C(=O)N(C)C(=O)C12 (some centres not stated)
  Ecoli growth: 0.659
Cc1cc(N2CCOCC2)ccc1C=C1NC(=O)N(Cc2ccccc2)C1=O
  Ecoli growth: 0.75
CC(C)(C)C1COC(=O)C(Cc2ccc(F)cc2)CC=CCC(CC(=O)N(CCO)Cc2ccccc2)C(=O)N1 (configuration not stated)
  Ecoli growth: 0.669&0.689&0.697
COc1ccc(C(=O)NC(=Cc2ccco2)C(=O)NC2CCS(=O)(=O)C2)cc1 (configuration not stated)
  Ecoli growth: 0.699&0.721
C[C@@]12C(=O)N(CC3CC3)CC(=O)N1C(C=Cc1ccccc1)C1C(=O)N(c3ccccc3)C(=O)C12 (some centres not stated)
  Ecoli growth: 0.677
CC1CN(C(C)CO)C(=O)c2cc(NC(=O)Nc3ccccc3)ccc2OC1CN(C)S(=O)(=O)c1cn(C)cn1 (configuration not stated)
  Ecoli growth: 0.677
CC1CN(C(C)CO)C(=O)c2cc(NC(=O)CCC(F)(F)F)ccc2OC1CN(C)S(=O)(=O)c1ccc(Cl)cc1 (configuration not stated)
  Ecoli growth: 0.649
COc1ccc(C2C3C(=O)N(C(C)(C)C)C(=O)C3[C@]3(C)C(=O)N(c4cccc(F)c4)C(=O)N23)cc1 (some centres not stated)
  Ecoli growth: 0.709

CNCCNCC(Cc1cccc2ccccc12)NCCc1ccccc1 (configuration not stated)
  Ecoli growth: 0.67
COc1ccc(C2CC(=O)C=C(c3cccc(OC(F)(F)F)c3)C2)cc1 (configuration not stated)
  Ecoli growth: 0.664
O=c1c2ccccc2c(C=NNS(=O)(=O)c2ccccc2)c(O)n1-c1ccccn1
  Ecoli growth: 0.715
CN(C)c1ccc(-c2cc(C3C4C=CCC[C@@]4(C)C(=O)N3Cc3ccccc3)ccc2F)cc1 (some centres not stated)
  Ecoli growth: 0.665
Cc1ccc2c(c1)NC(=O)[C@@]1(C)C(c3ccccc3)C3COc4ccc(Cl)cc4C3N1C2=O (some centres not stated)
  Ecoli growth: 0.669
O=S(=O)(C=Cc1ccccc1)Nc1ccc(N2CCOCC2)cc1
  Ecoli growth: 0.734
CCC(=O)[C@@]1(C)C(C)CC2C3CCC4=CC(=O)C=C[C@]4(C)C3C(O)C[C@@]21C (some centres not stated)
  Ecoli growth: 0.689
COC(=O)C1=C(C(=O)OC)C2N(C)c3ccccc3[C@@]23CC(C(=O)OC)N(C(=O)c2cc(C)oc2C)C3=N1 (some centres not stated)
  Ecoli growth: 0.666
CCOC(=O)C1C2COc3ccc(Cl)cc3C2N2C(=O)c3ccc(F)cc3NC(=O)[C@@]12C (some centres not stated)
  Ecoli growth: 0.686
Cc1cccc(CN2C(=O)NC(=Cc3cc(C)n(-c4ccccn4)c3C)C2=O)c1
  Ecoli growth: 0.677

Among those listed so far, 3 contain an aryl thioether with sulfur outside any ring:
COc1ccc(SCC(Cc2ccccc2)N2CCC(C(C)(C)C)CCC2=O)cc1 (configuration not stated)
  Ecoli growth: 0.718
CCC(C)Sc1ccc(C2C3C(=O)N(C)C(=O)C3[C@]3(C(=O)OC)CCCCN23)cc1 (some centres not stated)
  Ecoli growth: 0.71
COC(=O)[C@]1(CC(C)C)NC(c2ccc(SC3CCCCC3)c(OC)c2)C2C(=O)N(C)C(=O)C21 (some centres not stated)
  Ecoli growth: 0.669

Continuation:
CC(C)CC(NC(=O)OC(C)(C)C)c1cn(C(CCC(=O)OC(C)(C)C)C(=O)N2CCN(C(=O)OC(C)(C)C)CC2)nn1 (configuration not stated)
  Ecoli growth: 0.676
CCCCN1CC(=O)N2C(c3ccc(Cl)cc3)C3C(=O)N(CC)C(=O)C3[C@]2(Cc2ccccc2)C1=O (some centres not stated)
  Ecoli growth: 0.676
O=C1C=C(c2cccc(Cl)c2)CC(c2ccc(Cl)cc2)C1 (configuration not stated)
  Ecoli growth: 0.731
Cc1c(C(C)CCCO)oc(=O)c2c1Oc1c(C)c(C(C)CC(C)O)oc(=O)c1C2 (configuration not stated)
  Ecoli growth: 0.686&0.647
CC(=O)CC(O)CC(=O)C1OC(=O)CCCCCCCCc2ccccc21 (configuration not stated)
  Ecoli growth: 0.596&0.71&0.622&0.642
COc1ccc(C2CC(=O)C=C(c3ccc(Cl)c(F)c3)C2)cc1 (configuration not stated)
  Ecoli growth: 0.714
CCN1C(=O)C2C(c3ccc(SC4CCCCC4)c(OC)c3)N3CCCC[C@@]3(C(=O)OC)C2C1=O (some centres not stated)
  Ecoli growth: 0.739&0.724
OCCC1CC(O)C(O)[C@@]2(Cc3ccccc3O2)O1 (some centres not stated)
  Ecoli growth: 0.669&0.704&0.711&0.676
Cc1ccc(C=CC(=O)NCc2ccncc2)cc1
  Ecoli growth: 0.679
CC(C)C(CO)Nc1nc(NCc2ccc(S(N)(=O)=O)cc2)c2ncn(C(C)C)c2n1 (configuration not stated)
  Ecoli growth: 0.693

COc1ccc(NC(=O)C(C#N)=Cc2ccc(OCc3ccccc3F)cc2)cc1
  Ecoli growth: 0.682
CCOC(=O)C(N=Nc1c(C)n(C)n(-c2ccccc2)c1=O)=C(O)c1ccccc1
  Ecoli growth: 0.686
CCCCNC(=O)OC1CC2CCN3C(=O)CCC(C)(C)C(C1)C23 (configuration not stated)
  Ecoli growth: 0.69
O=C(O)CCCCCN1C(=O)C(=Cc2ccncc2)SC1=S
  Ecoli growth: 0.642
OCC(O)C(O)C(O)C(O)CO (configuration not stated)
  Ecoli growth: 0.678
CC(=O)OCC1OC(OCc2cn(CC3CCC(Cn4cc(COC5OC(COC(C)=O)C(OC(C)=O)C(OC(C)=O)C5OC(C)=O)nn4)O3)nn2)C(OC(C)=O)C(OC(C)=O)C1OC(C)=O (configuration not stated)
  Ecoli growth: 0.703
FC(F)(F)c1ccc(C2C3CN(Cc4ccc(-c5ccccc5)cc4)C(c4ccccc4)C34CC2(c2cccnc2)C4)cc1 (configuration not stated)
  Ecoli growth: 0.685
OCC(O)C(O)C(OC1OC(CO)C(O)C(O)C1O)C(O)CO (configuration not stated)
  Ecoli growth: 0.66&0.71&0.703
COC(=O)C1=C(C)N(Cc2ccccc2)C(=NCCCCO)NC1CCc1ccccc1 (configuration not stated)
  Ecoli growth: 0.643
